# High-throughput results from PubChem BioAssay.
# PINK1 expr mod: changes PINK1 expression; PINK1 immunofluorescence, high-content cytometry, 24 h; Potency, µM (doses to about 76.6 µM), without a hit: at the highest dose activation (PINK1 increase), usual class: activators; 410,000 compounds, 0.2% hits; AID 624263; active = well fitted activation curve with a large enough effect; inconclusive = small, poorly fitted or top-dose-only effect; inactive = flat fitted curve, though single readings scatter; cell line not stated here;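 further: potency means the concentration at half of the fitted maximal effect; % of control where 0% means no effect; nearly all actives have a fitted effect of over 65% in size; a mitochondrial uncoupler was the plate control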
#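 Fluorescence from anti-PINK1 antibody, together with nuclear and cell stains, was scanned on a laser-scanning cytometer. Before staining, stable-line cells were incubated 24 hours with compounds at 5 concentrations; primary antibody 12 h at 10 degrees C.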
# TRPML1 agonist: activates the human TRPML1 channel. 410,000 compounds, 0.12% hits. activation, % (no concentration beside the values). TRPML1-expressing cells, Ca2+ dye fluorescence, FDSS; host cell line not named in the record; reference of the full effect not given here; in the data active = activation above about 50%; inconclusive = about 30% to 50%; inactive = below about 30%; further: 0% is about no effect; the text of the record puts the active cut at 80%
# Target sequence (Q9GZU1 whole entry, looked up): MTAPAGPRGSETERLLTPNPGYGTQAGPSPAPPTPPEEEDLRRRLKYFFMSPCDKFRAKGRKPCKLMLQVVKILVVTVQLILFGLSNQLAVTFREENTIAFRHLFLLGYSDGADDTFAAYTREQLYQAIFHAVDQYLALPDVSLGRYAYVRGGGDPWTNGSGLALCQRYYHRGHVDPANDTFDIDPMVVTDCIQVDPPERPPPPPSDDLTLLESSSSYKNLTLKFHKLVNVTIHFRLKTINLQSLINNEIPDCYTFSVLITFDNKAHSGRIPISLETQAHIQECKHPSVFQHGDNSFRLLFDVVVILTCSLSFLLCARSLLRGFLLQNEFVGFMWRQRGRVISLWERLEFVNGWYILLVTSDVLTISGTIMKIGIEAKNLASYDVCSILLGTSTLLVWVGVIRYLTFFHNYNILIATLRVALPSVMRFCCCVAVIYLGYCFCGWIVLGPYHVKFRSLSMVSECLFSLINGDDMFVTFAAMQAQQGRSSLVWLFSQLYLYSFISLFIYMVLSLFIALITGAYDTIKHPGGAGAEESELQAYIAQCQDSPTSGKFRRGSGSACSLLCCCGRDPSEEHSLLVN
#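 Agonist activity was taken from a 110 s kinetic Ca2+ dye read on the FDSS after pinning compounds onto TRPML1-DL cells. The cells were seeded at 1,500/well with Tet inducer, incubated about 16 h, then dye-loaded at room temperature.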
# D2 agonist: human D2 receptor agonism in beta-arrestin assay. P14416. DiscoveRx PathHunter D2 beta-arrestin, luminescence, 90 min; 100% = 57 uM dopamine signal. activation, % (no concentration beside the values). 360,000 compounds, 0.084% hits; in the data active = activation above about 40%; inconclusive = about 15% to 40%; inactive = below about 15%; further: compound concentration not given in the record; the text of the record calls up to 30% inactive
# Target sequence (P14416 whole entry, looked up): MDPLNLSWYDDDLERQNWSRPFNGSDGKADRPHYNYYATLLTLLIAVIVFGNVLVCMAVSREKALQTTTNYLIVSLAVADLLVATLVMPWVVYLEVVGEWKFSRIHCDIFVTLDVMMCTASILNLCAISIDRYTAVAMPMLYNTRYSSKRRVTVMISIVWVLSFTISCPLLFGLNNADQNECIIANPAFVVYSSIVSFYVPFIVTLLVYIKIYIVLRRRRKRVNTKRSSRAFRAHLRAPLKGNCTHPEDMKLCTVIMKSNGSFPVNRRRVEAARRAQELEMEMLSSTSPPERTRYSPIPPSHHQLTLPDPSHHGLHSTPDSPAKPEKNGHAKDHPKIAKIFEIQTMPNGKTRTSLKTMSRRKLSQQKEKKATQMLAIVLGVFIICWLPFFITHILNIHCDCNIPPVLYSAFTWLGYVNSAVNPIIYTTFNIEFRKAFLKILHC
#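 Agonist mode: compounds alone added to overnight-plated D2 PathHunter cells for 90 min at 37 C, with 57 uM final dopamine (EC100) defining full response. Beta-arrestin recruitment detected by chemiluminescent reagent, read after 1 h at ambient temperature.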
# Six1-Eya2 blk: blocks human Six1 binding to Eya2; Q15475+O00167; AlphaScreen GST-Six1/His-Eya2 binding, biochemical; active compounds read low; control for the full effect not named in the record; activity change, % (concentration not given with the values); 360,000 compounds, 0.56% hits; in the data active = activity change below about -65%; inconclusive = about -30% to -65%; inactive = above about -30%; further: on the % scale 0 is the no-effect control and ±100 the full control effect
#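 Compounds are tested against tagged Six1 and Eya2 proteins bridged by glutathione donor and nickel acceptor beads; after a one-hour incubation at 37 °C without light, AlphaScreen emission is recorded.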
# D2 potentiator: positive allosteric modulators of human D2 dopamine receptor; P14416; DiscoveRx D2 beta-arrestin cells, luminescence, 90 min; 100% = 57 uM dopamine signal; potentiation, % (concentration not given with the values); 360,000 compounds, 0.23% hits; AID 624464; active = potentiation of 50% or more; inconclusive = 30% to 50%; inactive = 30% or less;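 further: tested on top of an EC20 dose of dopamine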
#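 D2 cells co-treated with compound plus 50 nM dopamine (EC20) for 90 min at 37 deg C to detect potentiation. Beta-arrestin recruitment was read as enzyme-fragment luminescence after 1 h at ambient temperature. Full response was set by 57 uM dopamine.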
# CtBP-E1A blk: blocks the CtBP interaction with E1A | activity change, % (concentration not given with the values) | 340,000 compounds, 0.49% hits | AlphaScreen GST-E1A/His-CtBP binding, 1536-well; active compounds read low; control for the full effect not named in the record; in the data active means activity change below about -65%; inconclusive means about -30% to -65%; inactive means above about -30%; further: on the % scale 0 is the no-effect control and ±100 the full control effect
#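 Steps: dispense buffer (Tris pH 8.0, NaCl 300 mM, TCEP 1 mM, BSA, Tween 20); add 5X protein mix (GST-E1A, His-CtBP, 125 nM each); pin 23 nL compound; 2 h at 37 °C, dark; add 5X beads (50 ug/mL); 1 h; read.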
# Numbers without * were called inactive; ? = inconclusive; · = not tested or not shown; & = joins results of further samples; [ ] = dose if it differs, or a comment.
structure | PINK1 expr mod | TRPML1 agonist | D2 agonist | Six1-Eya2 blk | D2 potentiator | CtBP-E1A blk
COc1ccc(NC(=O)C(Cc2ccccc2)n2cccc2)cc1OC (stereo not drawn) | 3.5%&0.2% | 1.8&1.2 | 0.8 | -22 | -9 | -16
CCOc1ncccc1C(=O)Nc1ccc(S(=O)(=O)N2CC(C)CC(C)C2)cc1 (stereo not drawn) | 3.1% | -0.3 | -4.1 | 2 | -4 | 4
COc1ccc(C2NC(=O)NC(C)=C2[N+](=O)[O-])cc1OC (stereo not drawn) | -0.5% | · | -8.0 | 11 | -7 | 4
COc1ccc(NC(=O)CCCNC(=O)Cn2cnc3sc(C)c(C)c3c2=O)c(OC)c1 | 14% | -0.8 | -2.4 | -5 | -9 | 21
NNC(=O)c1cccn(Cc2cccc(C(F)(F)F)c2)c1=O | -0.6% | -0.4 | 4.8 | -8 | -7 | 0
CCCCn1c(CCNC(=O)CC)nc2ccccc21 | 2.3% | -0.1 | -2.8 | 1 | -4 | 4
CC(=O)c1ccc(N2CCN(C(=O)c3cccs3)C(C)C2)c(F)c1 (stereo not drawn) | -0.5% | -0.7 | -0.1 | -2 | -13 | ·
CCn1c(CCCNC(=O)c2ccc(F)cc2)nc2ccccc21 | 0.9% | -0.4 | -4.7 | 4 | -11 | 2
CCOc1ccc(Cc2c(O)nc(SC)[nH]c2=O)cc1 | 1.3% | -0.4 | -2.5 | -13 | -5 | 3
Cc1nn(-c2nc3ccccc3[nH]2)c(N)c1-c1ccccc1 | -0.6% | 1.9 | -3.5 | -12 | -15 | -10
CCN(CCO)Cc1csc2ccc(Br)cc12 | -1.2% | -0.3 | -3.0 | -10 | -37 | -3
CCOc1ccc(CC(=O)Nc2sc(Cc3ccccc3)c(C)c2C(N)=O)cc1OCC | 20% | -0.5 | -5.5 | -9 | -2 | -6
COc1ccc(CCNC(=O)COc2ccc(N(C)S(=O)(=O)c3ccc(Cl)cc3)cc2)cc1 | 0.4% | -0.3 | 5.7 | -17 | -3 | 0
COc1cc2c(cc1NC(=O)c1ccccc1F)CCCC2 | -1.0% | 3.5 | -1.5 | 2 | -12 | 5
CCOc1ccc(-c2noc(-c3csc([C@@H]4C[C@H](O)[C@@H](CO)O4)n3)n2)cc1 | 0.7% | -0.4 | 4.4 | 6 | -6 | -4
CC(=O)CCc1ccc(OCCCCN2CCC(Cc3ccccc3)CC2)cc1 | -0.7% | 0.1 | -1.2 | -2 | -7 | 13
O=C(c1cc2ccc([N+](=O)[O-])cc2oc1=O)N1CCOCC1 | -1.6% | -0.5 | 0.0 | 7 | 2 | 6
Nc1nnnn1CC(=O)N/N=C/C=C/c1ccccc1 | 1.7% | -0.4 | -0.2 | -3 | -3 | 2
O=C(Nc1ccc(F)cc1)c1ccc(Br)c(S(=O)(=O)N2CCOCC2)c1 | 1.8% | 1.0 | 0.9 | 0 | -3 | -9
Cc1[nH]c2ccccc2c1C(=O)CSc1cccc[n+]1[O-] | -0.6% | -0.2 | -1.9 | -8 | -3 | -11

# Random excerpt: 5 records from the list.
structure | PINK1 expr mod | TRPML1 agonist | D2 agonist | Six1-Eya2 blk | D2 potentiator | CtBP-E1A blk
NNC(=O)c1cccn(Cc2cccc(C(F)(F)F)c2)c1=O | -0.6% | -0.4 | 4.8 | -8 | -7 | 0
O=C(c1cc2ccc([N+](=O)[O-])cc2oc1=O)N1CCOCC1 | -1.6% | -0.5 | 0.0 | 7 | 2 | 6
CCCCn1c(CCNC(=O)CC)nc2ccccc21 | 2.3% | -0.1 | -2.8 | 1 | -4 | 4
Cc1[nH]c2ccccc2c1C(=O)CSc1cccc[n+]1[O-] | -0.6% | -0.2 | -1.9 | -8 | -3 | -11
CCN(CCO)Cc1csc2ccc(Br)cc12 | -1.2% | -0.3 | -3.0 | -10 | -37 | -3

# (cont.)
structure | PINK1 expr mod | TRPML1 agonist | D2 agonist | Six1-Eya2 blk | D2 potentiator | CtBP-E1A blk
COc1c(N2CCN(C(=S)Nc3ccc(F)cc3)C(C)C2)c(F)cc2c(=O)c(C(=O)O)cn(C3CC3)c12 (stereo not drawn) | 0.3% | 1.0 | -2.9 | 4 | -10 | -1
CCN(c1ccccc1)C1(O)C(=O)c2ccccc2C1=O | -0.9% | -0.5 | 2.3 | 4 | -5 | 3
N=c1c(S(=O)(=O)c2ccc(Cl)cc2)cc2c(=O)n3ccccc3nc2n1Cc1cccnc1 | 40µM* | 0.6 | -1.3 | 3 | 5 | 0
O=C(CCc1nnc2ccc(N3CCCC3)nn12)Nc1ccc(F)cc1F | 2.8% | -1.0 | -2.3 | 5 | -10 | ·
CCCOc1ccc(S(=O)(=O)N2CCN(C)CC2)c2ccccc12 | -1.4% | 0.0 | -0.4 | 3 | -4 | 5
O=C1CC(=O)N2CCSC2=N1 | -0.2% | 0.1 | -0.9 | 7 | 2 | 3
O=C(CSc1nnc(SCc2cccc3ccccc23)s1)N/N=C/c1c[nH]c2ccccc12 | 4.1% | -0.3 | -5.7 | -21 | 10 | -7
C=CCOc1ccc(-c2nc3c(c(=O)[nH]c(=O)n3CCCC)n2C)cc1OC | 0.3% | 0.7 | -1.3 | -1 | -4 | 1
O=S(=O)(c1ccc(Br)cc1)N1CCCc2ccccc21 | 1.1% | 0.5 | -0.4 | 6 | -6 | 22
O=C(O)C(O)c1ccco1 (stereo not drawn) | 3.0% | -0.6 | -3.9 | ? | 0 | ·
Cc1[nH]n(-c2ccc(Cl)cc2)c(=O)c1C(=O)c1ccccc1 | 4.4% | -0.7 | -4.5 | -4 | -8 | -3
O=c1oc2ccc(Cl)cc2cc1-c1ccccc1 | 8.0% | 0.4 | 7.1 | 10 | 5 | 14
C=CCNC(=O)C1COc2ccccc2O1 (stereo not drawn) | 0.0% | -0.9 | 2.3 | -12 | -2 | 4
O=C(NCC1COc2ccccc2O1)C1C2C=CC3(CN(Cc4ccccc4Cl)C(=O)C13)O2 (stereo not drawn) | -0.7% | 0.2 | 0.0 | -2 | -23 | 3
CCOC(=O)C(NC(=O)c1ccc(F)cc1)(Nc1nnc(C)s1)C(F)(F)F (stereo not drawn) | 0.0% | -0.5 | -0.8 | 6 | -7 | 3
CCN(CC(=O)Nc1ccccc1C(F)(F)F)C(=O)CN1C(=O)NC2(CCCCC2)C1=O | -0.2% | -0.4 | -1.6 | 3 | -2 | -13
CC(C)(O)CN(C(=O)c1ccccc1)C1CCCCC1 | 3.1% | 0.7 | -2.3 | 0 | -7 | 12
C=CCOC(=O)C1=C(C)NC(SCC(=O)Nc2nccs2)=C(C#N)C1c1ccc(Cl)cc1 (stereo not drawn) | 4.2% | 1.3 | -0.2 | 2 | -11 | 4
Cc1ccc(S(=O)(=O)N2CCN(C(=O)N3CCOCC3)C2c2ccc(N(C)C)cc2)cc1 (stereo not drawn) | 70%[38.3 µM] | -0.9 | -3.3 | -1 | -18 | -5
COc1cccc(-c2noc(-c3ccc(Cl)nc3)n2)c1 | 0.5% | 0.0 | -3.2 | -7 | 4 | 0
NC(=O)N\N=C/C=C/C=C/c1ccc(F)cc1 | 0.1% | -0.1 | -0.4 | -1 | -15 | -3
CCOC(=O)c1ccc(NC2=CC(=O)C(=O)c3ccccc32)cc1 | -2.6% | -0.9 | 9.8 | -21 | 112* | -12
COc1ccccc1N1CCN(/N=C/c2cc(OC)c(OC)c(OC)c2)CC1 | 7.5% | 0.1 | -4.0 | ? | -31 | 13
Cc1ccc(S(=O)(=O)NCc2ccco2)cc1C | · | -0.4 | 1.0 | -2 | -7 | 9
CCC(=O)N1CCN(c2ccccc2NC(=O)c2ccc([N+](=O)[O-])o2)CC1 | 1.9% | -0.7 | 0.1 | -6 | 27 | -1
COc1cc(C(=O)NNC(=O)c2cc(=O)[nH]c3ccccc23)cc(OC)c1OC | -1.0% | -0.4 | 4.5 | 3 | -5 | -1
O=S(=O)(c1ccc(Cl)c(Cl)c1)N1CCc2nc3ccccc3n2CC1 | 18% | 0.1 | -2.2 | -4 | -14 | -10
O=C(CCN1C(=O)c2cccc3cccc(c23)C1=O)N1CCOCC1 | 3.6% | -0.4 | -2.3 | 1 | -8 | 7
CCOc1ccc(Nc2nc(Cc3nnc(SCC(=O)c4ccc(C)c(C)c4)o3)cs2)cc1 | 0.4%[38.3 µM] | 0.8 | 2.4 | -19 | 1 | -16
Cc1ccc(S(=O)(=O)N2CCN(C(=O)c3n[nH]c(=O)c4ccccc34)CC2)cc1 | 0.1% | 1.0 | -3.7 | 18 | -4 | 1
CC(C)(C)c1ccc(NC(=S)NCc2cccs2)cc1 | -0.3% | -0.7 | -2.1 | -4 | -15 | 0
Cn1c(=O)c2c(nc(NCCNC(=O)c3ccco3)n2Cc2ccc(Cl)cc2Cl)n(C)c1=O | ? | 0.8 | -1.0 | 5 | -12 | 0
CCOC(=O)/C=c1\s/c(=C\c2ccc3cc(OC)ccc3c2)c(=O)n1CC(=O)NCc1ccc2c(c1)OCO2 | 20µM* | -0.2 | -1.9 | 8 | -5 | 3
CC1CC(=O)C(C(C2=C(O)CC(C)CC2=O)c2ccccc2)=C(O)C1 (stereo not drawn) | 2.1% | 1.4 | -0.9 | 7 | -9 | -9
CC(C)CC(=O)Nc1sc2c(c1C#N)CC(C)(C)NC2(C)C | 0.3% | -0.6 | -1.8 | 3 | -17 | 9
COc1ccc(CC(=O)Nc2ccc(S(=O)(=O)Nc3nccs3)cc2)cc1 | 2.9% | 0.8 | -2.8 | -5 | -1 | -2
C(=N\Nc1nc(-c2cccnc2)nc2ccccc12)/c1ccccc1 | -0.7% | 0.9 | 6.1 | -19 | -4 | -17
Cc1ccc(-c2cc(C(=O)O)c3cc(Br)ccc3n2)o1 | 4.2% | -0.4 | -1.6 | ? | -9 | -8
COc1ccc(N2CCN(C(=O)COC(=O)c3ccc(CSC)o3)CC2)cc1 | 1.0% | 0.3 | 0.8 | -28 | -1 | -25
CC1(Oc2ccc(Cl)cc2)CCN(Cc2ccc(-c3ccccn3)cc2)C1 (stereo not drawn) | 21% | -1.0 | 13 | -11 | -13 | -8
NS(=O)(=O)c1ccc(NC(=O)c2cccc3ccccc23)cc1 | 2.5% | 0.6 | -1.6 | 5 | 0 | 6
CC(O/N=C/c1ccc(OC(F)F)cc1)C(=O)Nc1cccc(S(=O)(=O)N2CCOCC2)c1 (stereo not drawn) | 1.8% | 1.3 | -1.1 | -10 | 9 | -8
Cc1cccc(C(=O)Nc2ccc(C(=O)c3ccccc3)cc2)c1 | 4.3% | -0.8 | -3.3 | -8 | -10 | -11
O=C(Nc1ccc2c(c1)OCCO2)C(c1cc2ccccc2o1)N1CCN(C/C=C/c2ccccc2)CC1 (stereo not drawn) | 0.9% | 0.2 | 3.0 | ? | -12 | ?
C[C@H]1CN([C@@H](C)CO)C(=O)CCCn2nncc2CO[C@H]1CN(C)S(=O)(=O)c1cccs1 | 2.3% | 1.0 | -9.7 | 27 | -11 | 5
O=C(O)c1cc(NCc2cccs2)ccc1N1CCOCC1 | -3.7% | -0.8 | -1.0 | 4 | -11 | -3
CNC(=O)C[C@H]1C(=O)N(c2ccccc2)C[C@@H]1Cc1ccccc1 | -0.4% | · | 0.4 | 0 | · | 6
CCOC(=O)/C(C#N)=C/Nc1cc(C(C)(C)C)sc1C(C)=O | 6.9% | 1.7 | -2.3 | 4 | -1 | 7
